Screens as filed in PubChem BioAssay.
MT1-MMP act inh – blocks activation of human MT1-MMP; P50281; HT1080 RFP-PRO-GFP cells, GFP/RFP ratio fluorescence, overnight; percent of plate control window, DMSO zero; GFP/RFP ratio change, % at 20 µM; 360,000 tested, 0.061% active;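 active means GFP/RFP ratio change of at least 30% with cell ATP level not reduced by more than half and red fluorescence within 50% of control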; further: strong numbers were not always called active
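Assay system: RFP-PRO-GFP reporter HT1080 cells; read-out basis: GFP/RFP fluorescence ratio; benchmarks: DMSO wells and RFP-L50D-GFP cells; doses: 20 µM single dose, 1% DMSO; schedule: overnight cell settling, then overnight compound exposure, 37 °C, 5% CO2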
PABP polyA inh – PABP-poly(A) binding inhibition; P11940; PABP-poly(A) RNA binding, fluorescence polarization; inhibition, % at 35 µM; 290,000 tested, 1% active;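 active means 50% or more with normal probe brightness, or confirmed in later tests; inconclusive means above 50% with abnormal brightness, or retests that disagree; inactive means below 50% or failed in later tests; about a fifth of its hits are not listed in these tables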;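 further: calls also rest on retests at 20 µM and on dose response follow-up; controls were probe without protein and protein plus probe with vehicle; some compounds called inactive have numbers as strong as hits; many hits fall short of the cut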
Yeast UUG start – modulators of start codon recognition fidelity in yeast; S. cerevisiae UUG-firefly luciferase reporter, luminescence/redox ratio; activity score, % at 18.7 µM; 350,000 tested, 0.13% active;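 active means replicate mean at a twofold rise or more, about +100% in these data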;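 further: firefly luciferase made from a UUG start codon reports start codon fidelity; reporter light over untreated wells divided by growth signal over untreated wells; some hits fall short of that in this replicate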
Rce1 inh – blocks yeast Ras-converting enzyme; yeast membranes, quenched prenylated peptide cleavage fluorescence; 290,000 tested, 0.27% active; AID 2563; calls only; Q03530;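 active means fall in fluorescence gain of 50% or more versus controls, with final raw signal at or below 3038400; inconclusive means same 50% fall but final raw signal above 3038400; inactive means fall in fluorescence gain under 50%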;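 further: plate controls were neutral control wells for no effect and wells lacking membranes for full effect; tested at 10 µM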
Target sequence (Q03530 whole entry, looked up): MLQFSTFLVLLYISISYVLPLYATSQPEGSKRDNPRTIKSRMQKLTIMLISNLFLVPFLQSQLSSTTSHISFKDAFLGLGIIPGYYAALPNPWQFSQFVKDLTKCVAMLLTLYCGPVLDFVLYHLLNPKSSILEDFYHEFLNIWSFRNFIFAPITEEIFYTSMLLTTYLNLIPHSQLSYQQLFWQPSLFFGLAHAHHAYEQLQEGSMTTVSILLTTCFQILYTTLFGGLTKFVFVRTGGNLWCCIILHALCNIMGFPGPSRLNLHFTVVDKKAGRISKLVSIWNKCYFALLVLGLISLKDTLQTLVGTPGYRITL
HIV Env fusion – blocks HIV Env-driven cell-cell fusion; AID 651610; HeLa-JRFL Env/CEM21 cell fusion, luciferase; inhibition, % at 12.3 µM; 360,000 tested, 1.1% active;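 active means mean replicate inhibition score of at least 50 and every replicate individually at or above 50; inconclusive means only one of the two criteria met; inactive means mean below 50 and not all replicates reaching 50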;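 further: 0% = plate neutral controls and 100% = maraviroc near 300 nM; one replicate is shown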
eIF4H FP inh – inhibitors of RNA binding by human eIF4H; eIF4H fluorescence polarization binding assay; inhibition, % at 35 µM; 290,000 tested, 0.94% active; AID 2012;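 active means 50% or more with normal probe brightness, or confirmed in later tests; inconclusive means above 50% with abnormal brightness, or retests that disagree; inactive means below 50% or failed in later tests; about a fifth of its hits are not listed in these tables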;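 further: calls also rest on retests at 20 µM and on dose response follow-up; 0% = protein and probe with vehicle and 100% = probe without protein; strong numbers were not always called active; many hits fall short of the cut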
CSC inhib – blocks cancer stem cells; cancer stem cell-like cells viability, luminescence; inhibition, % at 7.5 µM; 300,000 tested, 1.1% active;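 active means mean at 75% or more and at least half the replicates too; inconclusive means mean and replicates disagree; tested in HMLE shEcad cells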;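 further: 0% = median of negative and 100% = median of positive control wells; the first replicate is given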
MT1-MMP act inh RFP – further read-out of MT1-MMP act inh, marked with its call; RFP signal change, %; measured here: RFP expression control read;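 0 = vehicle wells; hits needed this value within 50% of zero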
Numbers without * were called inactive; i = inactive; ? = inconclusive; nt = not tested or not shown.

A first look (4 entries):
compound	MT1-MMP act inh	Yeast UUG start	PABP polyA inh	Rce1 inh	CSC inhib	MT1-MMP act inh RFP	HIV Env fusion	eIF4H FP inh
C=CCN1c2ccccc2Sc2cnccc21	-15	-3	nt	nt	nt	-11	-7	nt
O=c1[nH]c2ccccc2nc1/C=C/c1ccc(O)cc1	-39	-21	0	i	nt	0	-53	32
CCCCN1C(Nc2ccccc2)=NC[C@@H]1CC(C)C	1	-20	nt	nt	13	0	-39	nt
Cc1ccc(NC(=O)Cc2ccccc2F)cc1S(=O)(=O)N1CCCCCC1	-8	2	nt	nt	3	-25	nt	nt

The listing, from the start:
compound	MT1-MMP act inh	Yeast UUG start	PABP polyA inh	Rce1 inh	CSC inhib	MT1-MMP act inh RFP	HIV Env fusion	eIF4H FP inh
C=CCN1c2ccccc2Sc2cnccc21	-15	-3	nt	nt	nt	-11	-7	nt
O=c1[nH]c2ccccc2nc1/C=C/c1ccc(O)cc1	-39	-21	0	i	nt	0	-53	32
CCCCN1C(Nc2ccccc2)=NC[C@@H]1CC(C)C	1	-20	nt	nt	13	0	-39	nt
Cc1ccc(NC(=O)Cc2ccccc2F)cc1S(=O)(=O)N1CCCCCC1	-8	2	nt	nt	3	-25	nt	nt
CCOC(=O)C1CCCCN1C(=O)CCc1nnc(-c2ccc3c(c2)OCO3)o1 (stereo unspecified)	0	10	2	i	-1	2	1	-10
CC(NC(=O)c1ccc(S(=O)(=O)C(F)F)cc1)c1ccccc1 (stereo unspecified)	1	1	0	i	-11	-1	6	-4
CC(C)C(NC(=O)c1ccccc1)C(=O)NCCc1ccccc1 (stereo unspecified)	-1	nt	-10	i	-14	1	-31	-4
COC(=O)c1sc(S(=O)(=O)N2CCC(C)CC2)c(C(=O)OC)c1C	-1	-6	1	i	9	1	-5	-5
COc1ccc(C(C(=O)NC2CCCCC2)N2CCC3(CC2)OCCO3)cc1 (stereo unspecified)	0	-7	-12	nt	-4	2	5	-7
O=C(Nc1ccc(-n2cccn2)cc1)C1CCCCN1Cc1cccc2c1OCO2 (stereo unspecified)	-4	-23	8	i	62	-15	-6	-2
COc1cccc(-c2nc(-c3ccccn3)no2)c1	nt	nt	-4	i	17	nt	-5	-5
COC(=O)Nc1ccc(S(=O)(=O)N2CCC(Cc3ccccc3)CC2)cc1	-9	462*	-7	i	31	-3	-16	7
CC(=O)Nc1cccc(C(=O)OCC(=O)NNC(=O)c2cccs2)c1	-4	-13	nt	i	-4	0	-13	nt
COc1ccc2nc(SCC(=O)N3CCN(c4ccc(F)cc4)CC3)c(C#N)cc2c1	-5	4	-15	i	-2	-5	nt	29
COc1ccc(S(=O)(=O)Nc2cccc(/C=C/C(=O)O)c2)cc1	8	-1	11	i	7	6	0	-3
Cc1cccc(C)c1NC(=O)CSC(=O)c1sc2ccccc2c1Cl	-1	nt	1	i	-16	-2	-7	2
COC(=O)C1CCN(C2CN(Cc3ccccc3)S(=O)(=O)C2)CC1 (stereo unspecified)	1	-5	nt	nt	nt	2	10	nt
CSc1ccc(C(O)c2ncc(-c3ccccc3F)[nH]2)cc1 (stereo unspecified)	0	-10	nt	nt	nt	-3	39	nt
CCOc1ccc(NC(=O)CN(C)C(=O)c2cc(-c3ccncc3)nc3ccccc23)cc1OCC	-3	-7	nt	i	-1	-2	20	nt
COc1ccc(-c2csc3nc(C(C)(C)C)oc(=O)c23)cc1OC	1	nt	-2	i	-10	3	-3	-1
Nc1nc(SCC(=O)Nc2ccccc2)[nH]c(=O)c1-c1ccccc1	7	0	7	i	-13	-5	nt	3
CCOc1ccccc1N/C(=C(/C(Cl)=C(Cl)Cl)[N+](=O)[O-])n1cncn1	-4	-9	10	nt	16	1	nt	-5
Nc1cccc(-c2cn3cc(C(F)(F)F)cc(Cl)c3n2)c1	7	-32	3	i	0	3	i	-3
O=C(NCCNC(=O)c1ccc(Cl)cc1Cl)c1cnccn1	-1	nt	9	i	2	0	-6	2
CC(C)(C)NC(=O)NC(=O)C[n+]1ccc(Cc2ccc([N+](=O)[O-])cc2)cc1	0	0	4	i	-13	-9	16	0
O=C1CC(Cc2ccccc2)C(=O)N1Cc1ccco1 (stereo unspecified)	2	-8	3	i	-4	5	nt	1
CCCNCC(=O)Nc1cccc(S(=O)(=O)NC2=NCCCCC2)c1	0	-17	nt	nt	-20	-3	19	nt
CCCOc1ccc2c3c(c(=O)oc2c1OCCC)CCC3	-2	-13	-3	i	-10	-4	32	9
CN(C)C1=NC[C@H](Cc2ccccc2)N1CCc1ccc(F)cc1	-1	-13	nt	nt	1	-2	-4	nt
C/C(=N\OC(=O)c1c(-c2ccccc2Cl)noc1C)c1nccs1	1	nt	-2	i	1	0	8	13
Cc1cc(C)c(N=C2SCC(=O)N2Cc2ccco2)c(C)c1	1	1	0	i	-2	-5	2	2
COC(=O)C1=C(C)NC(C)=C(C(=O)OC)C1c1ccccn1	-1	-32	-3	i	-5	3	nt	0
O=C(O)Cn1nc2ccccc2n1	6	-6	13	i	-11	3	-29	0
CCOC(=O)CCCSc1nc(-c2ccc3c(c2)OCO3)cc(C(F)(F)F)c1C#N	-1	-22	9	i	-1	3	nt	13
CC(=O)Nc1ccc(C(=O)CN2C(=O)NC3(CCCc4ccccc43)C2=O)c(F)c1 (stereo unspecified)	2	-13	nt	nt	5	-6	-5	nt
CCC(C)(C)n1nnnc1CN1CCC(NC(=O)c2ccccc2C)CC1	1	-17	?	nt	-3	0	-128	0
Nc1ccc(-c2c3ccccc3nc3ccccc23)cc1	-6	-14	-1	i	-1	-5	1	2
O=c1ccc(Cc2ccccn2)n[nH]1	2	-20	3	i	-4	4	-14	-11
COc1ccc2c(c1)c1ccc3c(c1n2C)C(=O)C=CC3=O	-2	-17	12	nt	nt	0	-231	5
O=C(NCCCn1ccnc1)c1cc2cc([N+](=O)[O-])ccc2oc1=O	-1	nt	-4	i	5	1	-1	6
COC(=O)Nc1ccc(S(=O)(=O)N2CCCC(C(=O)N3CCC(C)CC3)C2)cc1 (stereo unspecified)	2	nt	-13	i	-15	-10	-4	28
O=S(=O)(c1ccc(S(=O)(=O)N(Cc2cccs2)CC2CCCO2)cc1)N1CCCCC1 (stereo unspecified)	-5	-15	-4	i	nt	-1	14	-1
COc1ccc(CCNC(=O)CSc2nnc(Cc3csc(N)n3)n2C)cc1OC	2	-25	2	i	-4	3	nt	-8
CCOC(=O)C1(Cc2cccc(Cl)c2)CCCN(C(=O)c2ccco2)C1 (stereo unspecified)	-3	-19	9	i	25	-3	-4	-2
O=C(O)CCn1cc(-c2ccc(Cl)cc2)nc1-c1ccc(Cl)nc1	2	-7	nt	nt	-15	3	-3	nt

Quoted at random: five compounds from above.
compound	MT1-MMP act inh	Yeast UUG start	PABP polyA inh	Rce1 inh	CSC inhib	MT1-MMP act inh RFP	HIV Env fusion	eIF4H FP inh
O=c1ccc(Cc2ccccn2)n[nH]1	2	-20	3	i	-4	4	-14	-11
O=c1[nH]c2ccccc2nc1/C=C/c1ccc(O)cc1	-39	-21	0	i	nt	0	-53	32
Nc1ccc(-c2c3ccccc3nc3ccccc23)cc1	-6	-14	-1	i	-1	-5	1	2
CCOC(=O)C1(Cc2cccc(Cl)c2)CCCN(C(=O)c2ccco2)C1 (stereo unspecified)	-3	-19	9	i	25	-3	-4	-2
COc1ccc(-c2csc3nc(C(C)(C)C)oc(=O)c23)cc1OC	1	nt	-2	i	-10	3	-3	-1

A few values from the entries so far.
Entry for `O=S(=O)(c1ccc(S(=O)(=O)N(Cc2cccs2)CC2CCCO2)cc1)N1CCCCC1` (stereo unspecified) under eIF4H FP inh: -1
Entry for `Nc1ccc(-c2c3ccccc3nc3ccccc23)cc1` under CSC inhib: -1
Entry for `CCC(C)(C)n1nnnc1CN1CCC(NC(=O)c2ccccc2C)CC1` under MT1-MMP act inh: 1
Entry for `CC(=O)Nc1ccc(C(=O)CN2C(=O)NC3(CCCc4ccccc43)C2=O)c(F)c1` (stereo unspecified) under MT1-MMP act inh: 2
Entry for `O=C(O)Cn1nc2ccccc2n1` under PABP polyA inh: 13
Entry for `O=C(NCCCn1ccnc1)c1cc2cc([N+](=O)[O-])ccc2oc1=O` under HIV Env fusion: -1

Continued.
compound	MT1-MMP act inh	Yeast UUG start	PABP polyA inh	Rce1 inh	CSC inhib	MT1-MMP act inh RFP	HIV Env fusion	eIF4H FP inh
O=C(O)c1cccc(N2C(=O)c3cccnc3C2=O)c1	2	-3	18	i	-3	5	-140	-8
O=c1c(NCCc2ccc(Cl)cc2)c(-c2ccccc2)c1=O	2	-11	-19	i	6	1	-10	-1
COc1cc(OC)c2ccc(=O)oc2c1C(CCN1CCCC1)c1ccc(N(C)C)cc1 (stereo unspecified)	0	2	-4	i	-5	-1	4	-8
COc1cccc(C2N=C(c3ccccc3C)NO2)c1OC (stereo unspecified)	3	-8	4	i	-2	2	-43	10
CC1(C(=O)NS(=O)(=O)c2cccc(F)c2)CCN1C(=O)Cc1ccccc1Cl (stereo unspecified)	-1	3	nt	nt	nt	2	1	nt
COc1ccc(N2C(=O)CC(Sc3nc(C)c4c(n3)CCCC4)C2=O)cc1 (stereo unspecified)	-5	nt	-2	i	29	-12	nt	-10
CCOC(=O)C1(C)CCCCN1C(=O)c1ccnc(Cl)c1 (stereo unspecified)	1	-5	nt	nt	nt	4	2	nt
COc1ccc(CCNC2CC(=O)N(CCc3ccc(OC)c(OC)c3)C2=O)cc1OC (stereo unspecified)	2	nt	6	i	nt	4	nt	0
CN(Cc1ccc(C(C)(C)C)cc1)C(=O)Cc1ccc(S(=O)(=O)N2CCOCC2)s1	2	-10	nt	nt	nt	-5	19	nt
CC12CCC(=O)N1C(C(=O)NNC(=O)c1ccccc1Cl)CS2 (stereo unspecified)	-3	-21	nt	nt	-7	1	nt	nt
Cc1ccc(S(=O)(=O)N2C[C@@H](C)[C@]3(C2)[C@H](O)[C@H](OC(=O)Nc2c(C)noc2C)C[C@H]2C(=O)N(c4ccccc4)C(=O)[C@H]23)cc1	2	-4	nt	nt	nt	4	-9	nt
O=[N+]([O-])c1ccc(C(O)C[n+]2ccccc2)cc1 (stereo unspecified)	0	-26	44	i	-29	4	nt	-3
Cc1c(C(=O)NC2CCN(Cc3ccccc3)C2)oc2ccc(Br)cc12 (stereo unspecified)	2	5	-6	i	35	-3	12	-6
N#C/C(=C\c1cc2ccccc2nc1N1CCOCC1)C(=O)Nc1ccc(N2CCOCC2)cc1	-1	4	-10	i	14	-5	nt	-7
c1ccc(-n2ncc3c(N4CCCC4)ncnc32)cc1	1	-38	9	i	-14	-1	-103	-11
